2A StopGo: FMDV 2A StopGo reporter, luciferase signal; human cells with a luciferase reporter of 2A StopGo recoding; control for the full effect not named in the record; Potency, µM (top dose mostly 57.9 µM), inactives show top-dose signal change, negative = less light; actives 1.2% (n = 410,000); AID 1159524; active = well fitted falling curve with a large enough effect; inconclusive = small, poorly fitted or top-dose-only effect; inactive = no such curve, though single readings can be large or run the other way; tested in HEK293T cells; also: % is scaled to controls: 0 for no effect and ±100 for the full control effect; nearly all actives have a fitted effect of over 45% in size; luciferase light after 4 h
Marburg entry inh: blocks Marburg virus binding to or entry into cells; Potency, µM (highest dose often 37.8 µM), without a hit: at the top dose activity change, negative = inhibition, hits mostly inhibitors; AID 540276; Marburg virus pseudotyped entry inhibition, cell reporter; control for the full effect not named in the record; about a third of the inactives were read at about 46 µM; actives 1.8% (n = 300,000); active = well fitted inhibition curve with a large enough effect; inconclusive = small, poorly fitted or top-dose-only effect, or effect the other way; inactive = flat fitted curve, though single readings scatter; tested in HEK293 cells; about a fifth of its hits are not listed in these tables; also: % is scaled to controls: 0 for no effect and ±100 for the full control effect; luciferase read-out
SARS PLP yeast: inhibitors of SARS-CoV papain-like protease in yeast; S. cerevisiae expressing SARS-CoV PLpro, growth rescue; control for the full effect not named in the record; actives 0.19% (n = 330,000); Potency, µM (top dose mostly 32.9 µM), inactives show top-dose activity, positive = growth rescue; also: 0% is about no effect; nearly all actives have a fitted effect of over 55% in size; growth read by luminescence after 48 h
RE007 growth inh: less growth of the S. pombe RE007 Vpr strain; S. pombe RE007 Vpr strain, BacTiter-Glo ATP luminescence, 24 h; control for the full effect not named in the record; Potency, µM (doses to about 92.2 µM), for inactives: top-dose activity change, negative = less growth; actives 0.21% (n = 360,000); AID 651644; active = well fitted falling curve with a large enough effect; inconclusive = small, poorly fitted or top-dose-only effect; inactive = no such curve, though single readings can be large or run the other way;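 also: % is scaled to controls: 0 for no effect and ±100 for the full control effect; nearly all actives have a fitted effect of over 50% in size; the assay follows cell death caused by Vpr and the record does not say whether a fall means rescue or toxicity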
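Fission yeast strain RE007, carrying one chromosomally integrated HIV-1 vpr copy, was seeded at OD 0.01 in PMG+AL medium with 23 nL pinned compound. After 24 h at 30 °C and 99% humidity, viability was read by BacTiter-Glo luminescence.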
Cruzain inh Det: blocks cruzain activity in presence of Triton detergent; purified cruzain, Z-FR-AMC fluorescence, 0.01% Triton; Potency, µM, for inactives: max response, negative = inhibition, hits mostly inhibitors; actives 0.43% (n = 200,000); AID 1478; active = well fitted curve in the direction sought with a large enough effect; inconclusive = small, poorly fitted or top-dose-only effect, or another doubt; inactive = no such curve, though single readings can be large; an effect the other way counts as inactive or inconclusive;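 also: plate controls were neutral wells for no effect and buffer without enzyme for full effect; nearly all actives have a fitted effect of over 40% in size; top concentration of the series not given in the record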
Target sequence (P25779 123-467 limits assumed): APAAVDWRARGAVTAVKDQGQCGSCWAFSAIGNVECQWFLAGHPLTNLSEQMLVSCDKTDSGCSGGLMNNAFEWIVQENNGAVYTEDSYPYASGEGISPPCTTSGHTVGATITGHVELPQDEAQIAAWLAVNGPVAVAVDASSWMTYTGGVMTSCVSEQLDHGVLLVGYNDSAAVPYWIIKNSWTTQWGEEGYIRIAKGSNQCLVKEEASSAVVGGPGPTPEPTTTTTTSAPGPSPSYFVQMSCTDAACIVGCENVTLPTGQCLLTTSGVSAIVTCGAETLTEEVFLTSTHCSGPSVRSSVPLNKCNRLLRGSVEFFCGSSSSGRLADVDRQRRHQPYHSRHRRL
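Enzyme 1.5 nM, Z-FR-AMC 2 uM, NaOAc 100 mM pH 5.5, DTT 5 mM, Triton X-100 0.01%; 15 min RT compound preincubation; kinetic ex360/em450, 60 s delta.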
NS1 inh: influenza NS1 inhibition. S. cerevisiae slowed by influenza A NS1, growth recovery by OD600. Potency, µM (titrated, usually from 46.1 µM), for inactives: at the highest dose activity, positive = more growth. actives 0.4% (n = 270,000). AID 2326; also: actives are rising curves; nearly all actives have a fitted effect of over 50% in size
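S. cerevisiae expressing influenza A NS1, grown in glucose, washed, then diluted 1:100 into pH 6.0 -URA galactose medium with 23 nl compound. Growth recovery read as OD600; NS1-free strain serves as control.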
LASV entry inh: Lassa virus entry inhibition. Potency, µM (top dose mostly 37.9 µM), without a hit: at the highest dose activity change, negative = inhibition, hits mostly inhibitors. AID 540256. Lassa virus pseudotype entry inhibition, cell reporter; control for the full effect not named in the record. actives 1.2% (n = 300,000); active means well fitted inhibition curve with a large enough effect; inconclusive means small, poorly fitted or top-dose-only effect, or effect the other way; inactive means flat fitted curve, though single readings scatter; tested in HEK293 cells; also: % is scaled to controls: 0 for no effect and ±100 for the full control effect; nearly all actives have a fitted effect of over 50% in size; luciferase read-out
Cruzain noTriton: blocks cruzain activity in detergent-free assay | actives 2.3% (n = 200,000) | Potency, µM, without a hit: max response, negative = inhibition, most hits filed as inhibitors | purified cruzain, Z-FR-AMC fluorescence, no detergent | AID 1476; active = well fitted curve in the direction sought with a large enough effect; inconclusive = small, poorly fitted or top-dose-only effect, or another doubt; inactive = no such curve, though single readings can be large; an effect the other way counts as inactive or inconclusive;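 also: plate controls were enzyme without inhibitor for no effect and buffer without enzyme for full effect; nearly all actives have a fitted effect of over 40% in size; top concentration of the series not given in the record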
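Purified cruzain at 1.5 nM, pre-incubated 15 min with compound at room temperature in 100 mM sodium acetate pH 5.5, 5 mM DTT, 0.00005% Triton X-100. Reaction started with 2 uM Z-FR-AMC; AMC fluorescence increase over 60 s gives rate.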
* marks the source's active call; other numbers are inactive results; ? = inconclusive; / = no result given; & = joins results of further samples; [ ] = dose if it differs, or a comment. Unless noted, calls follow the shape of the dose curve; as a rule, active means well fitted rising curve with a large enough effect; inconclusive means small, poorly fitted or top-dose-only effect; inactive means no such curve, though single readings can be large or run the other way. Potency is read from the fitted curve at half-maximal effect. Compounds were not picked by outcome; 4.5% or so of the library scored in one or more.

Below each SMILES: 2A StopGo	Marburg entry inh	SARS PLP yeast	RE007 growth inh	Cruzain inh Det	NS1 inh	LASV entry inh	Cruzain noTriton
1. Cc1noc(C)c1C(=O)NC(C)c1ccc(Cl)cc1Cl (centres undefined)
    -15%	1%[46.1 µM]	1%	-11%	/	/	4%	/
2. COc1ccc(NC(=O)c2cc(-c3ccccn3)nc3ccccc23)cc1S(=O)(=O)N(C)C
    ?	16µM*	-1%	24%	/	/	?	/
3. COC(=O)Nc1nc(-c2ccc(F)cc2)c(C)s1
    21%	-4%	0%	45%	/	/	?	/
4. COc1ccccc1CNC(=O)C[n+]1ccccc1
    -7%	-2%[46.1 µM]	-1%	20%	0.2%	-1%	14%	-1%
5. COc1ccc(C(=O)c2sc3nc(-c4ccc(C)cc4)cc(C(F)(F)F)c3c2N)cc1
    7%	-1%[46.1 µM]	/	/	2.9%	/	1%[46.1 µM]	10%
6. CN(CCc1ccccn1)C(=O)Nc1ccc(C(C)(C)C)cc1
    15%	20%	-3%	-13%	/	-4%	2%	/
7. Clc1ccccc1-c1nnc(-c2ccc3c(c2)OCO3)o1
    -7%	?	-5%	-21%	/	/	?	/
8. NC(N)=NCc1cccc(I)c1
    ?	?	/	6%	-5.4%	5%	?	9%
9. CC(C)Cn1c(N)c(C=O)c(=O)[nH]c1=O
    -8%	-9%[46.1 µM]	1%	16%	/	/	/	/
10. O=C(CCCN1C(=O)/C(=C/c2ccccc2Cl)SC1=S)NNC(=O)c1cccnc1
    ?	/	-1%	-6%	/	4%	/	/
11. Cc1ccc(CNC(=O)C(=O)c2cn(CC(=O)N3CCOCC3)c3ccccc23)cc1
    21%	/	?	-8%	/	-16%	/	/
12. O=C(COC(=O)C1CC2CCCC(C1)C2=O)Nc1cccc(F)c1 (centres undefined)
    -5%	?	1%	27%	/	/	9%	/
13. COc1cccc(C(=O)Nc2cccc(C(=O)OCc3cc(=O)n4c(C)csc4n3)c2)c1
    -13%	/	/	/	1.0%	/	?	1%
14. CCOC(=O)C1=C(COC(=O)c2ccc(Cl)nc2)NC(=O)NC1C (centres undefined)
    0%	8%[46.1 µM]	/	-13%	/	/	36%	/
15. Cc1ccccc1N1CCN(C(=O)c2ccc(Oc3ccc(C(F)(F)F)cn3)cc2)CC1
    ?	-17%	-10%	1%	-5.4%	5%	14%	4%
16. Cc1c(Cc2ccccc2)c(=O)oc2cc(OCC(=O)N3CCC(C(=O)O)CC3)ccc12
    -11%	/	-8%	2%	/	?	/	/
17. CN1CCN(C(=O)c2ccc(CSc3nc4ccncc4n3Cc3ccc(F)cc3)cc2)CC1
    0%	5%	-2%	-11%	-8.6%	24%	4%	-16%
18. O=C(O)COCC(=O)N1CCN(c2cc(C(F)(F)F)nc3ccccc23)CC1
    -25%	/	0%	2%	/	-2%	/	/
19. COc1ccccc1C=C1SC(=S)NC1=O
    -5%	?	/	33%	/	/	?	/
20. CC(C)c1ccc(NC(=O)c2cnn(-c3ccccc3)c2NC(=O)c2ccco2)cc1
    ?	?	-1%	-14%	-8.3%	10%	?	14%
21. COC(=O)c1cc2sc(Cl)cc2n1CC(=O)N1CCCc2ccccc21
    /	?	-2%	-3%	-4.6%	-10%	-8%	-4%
22. CCOc1cc(/C=N/n2cnnc2)ccc1OS(=O)(=O)c1ccc(C)cc1
    -20%	-18%[46.1 µM]	2%	3%	/	-1%	3%	/
23. Cc1ccc2c(=O)cc(C(=O)Nc3ccc(S(=O)(=O)Nc4onc(C)c4C)cc3)oc2c1C
    -6%	3%[46.1 µM]	/	/	-4.0%	/	2%[46.1 µM]	?
24. O=C(NCCc1nc2ccccc2[nH]1)c1ccc(Cl)c([N+](=O)[O-])c1
    -24%	3%	17%	-5%	1.3µM*	5%	1%	2µM*
25. CNc1c2cccc(C)c2nc2c(C(=O)NCCN(C)C)cccc12
    ?	?	/	-9%	/	/	?	/
26. Nc1nc(C2CCCCC2)cs1
    18%	-8%	4%	-14%	-1.9%	-19%	19%	-3%
27. COc1ccc(S(=O)(=O)NCc2ccc3c(c2)OCO3)cc1C(=O)O
    9%	0%[46.1 µM]	-6%	-1%	0.4%	-6%	4%	1%
28. CC(C)(C)OC(=O)NCCCC[C@H](NC(=O)c1nc[nH]c1C(=O)N1CCc2ccccc2C1)C(=O)OC(C)(C)C
    0%	/	-5%	-10%	/	-1%	/	/
29. CCN(c1ccccc1)S(=O)(=O)c1ccc(Cl)c(NC(=O)CN(C)Cc2cccc(F)c2)c1
    -20%	?	/	-7%	/	/	?	/
30. CCc1ccccc1N=C1SCC(=O)N1C
    4%	19%	-3%	6%	2.2%	-3%	10%	15%

Of the compounds above, these have an NH in an aromatic ring:
Below each SMILES: 2A StopGo	Marburg entry inh	SARS PLP yeast	RE007 growth inh	Cruzain inh Det	NS1 inh	LASV entry inh	Cruzain noTriton
9. CC(C)Cn1c(N)c(C=O)c(=O)[nH]c1=O
    -8%	-9%[46.1 µM]	1%	16%	/	/	/	/
24. O=C(NCCc1nc2ccccc2[nH]1)c1ccc(Cl)c([N+](=O)[O-])c1
    -24%	3%	17%	-5%	1.3µM*	5%	1%	2µM*
28. CC(C)(C)OC(=O)NCCCC[C@H](NC(=O)c1nc[nH]c1C(=O)N1CCc2ccccc2C1)C(=O)OC(C)(C)C
    0%	/	-5%	-10%	/	-1%	/	/

Additional results follow:
Below each SMILES: 2A StopGo	Marburg entry inh	SARS PLP yeast	RE007 growth inh	Cruzain inh Det	NS1 inh	LASV entry inh	Cruzain noTriton
31. O=C(NCCn1ccc2ccccc21)c1ccc(Cl)cc1
    45%[activator]	?	/	/	-8.2%	/	24%[46.1 µM]	-17%
32. CSc1ncccc1C(=O)OCC(=O)c1cccc(Br)c1
    0%	28%[46.1 µM]	2%	-3%	/	/	3%	/
33. O=C1OC(c2ccco2)=N/C1=C\c1ccc(-c2cccc(C(F)(F)F)c2)o1
    -5%	-18%	26%	-3%	-11%	19%	-1%	13µM*
34. COc1ccc(-c2cc(=O)oc3cc4occ(C)c4cc23)cc1
    -17%	-1%	-2%	-1%	-1.9%	2%	0%	-17%
35. CN(CC(=O)NCC(c1ccccc1)N1CCCC1)S(=O)(=O)c1ccc(Cl)cc1 (centres undefined)
    -5%	?	0%	-16%	/	/	-2%	/
36. O=C1C2C3C=CC(C3)C2C(=O)N1Nc1ccc([N+](=O)[O-])cc1[N+](=O)[O-] (centres undefined)
    -14%	/	-5%	-8%	/	6%	/	/
37. Cc1ccccc1/C=N/NC(=O)Cn1cnc([N+](=O)[O-])n1
    -21%	-3%	4%	-14%	-10.0%	4%	?	1%
38. CCC(CC)c1nnc(NC(=O)CN2C(=O)c3ccccc3C2=O)s1
    -9%	6%	1%	-18%	/	-1%	?	/
39. Cc1cccc(C)c1NC(=O)CSc1nc2ncccc2o1
    0%	/	/	/	-1.9%	/	1%[46.1 µM]	-4%
40. Cc1ccc(CCNC(=O)c2ccc(CNS(=O)(=O)c3ccc(C)cc3)cc2)cc1
    -18%	/	/	/	0.9%	/	-26%[46.1 µM]	-23%
41. O=C(N[C@@H](Cc1ccccc1)C(=O)OCc1ccccc1)c1nc[nH]c1C(=O)N1CCN(c2ccccc2)CC1
    -9%	/	1%	-4%	/	-2%	/	/
42. COCCN1C(=O)N[C@@H](CCc2ccccc2)[C@H](C(=O)OC)[C@H]1C
    -16%	3%&3%&3%[14.2 µM]	/	-7%	/	/	?	/
43. Cc1ccc(NC(=O)CSc2nc3ccccc3c(=O)n2CCCC(=O)NCCCN2CCOCC2)cc1
    0%	?	-1%	-11%	/	/	?	/
44. CN(CCc1nc2ccccc2[nH]1)Cc1nc(CC2CC2)no1
    -25%	/	-1%	-6%	/	3%	/	/
45. Cc1cc(NC(=O)c2ccc(Cl)cc2)ccc1NC(=O)c1ccccc1Cl
    0%	0%	0%	-2%	/	-12%	0%	/
46. O=C(CSc1nnnn1-c1ccc(O)cc1)c1ccc(F)cc1
    45%[activator]	/	5%	-4%	/	-5%	/	/
47. C=CCc1ccc(OCCCCNC2CCCC2)c(OC)c1
    -9%	?	0%	-4%	/	-1%	?	/
48. Cc1ccc(CNC(=O)c2ccc3c(c2)NC(=O)C(CS(=O)(=O)Cc2ccc(F)cc2)N3)cc1 (centres undefined)
    -25%	/	/	/	-2.3%	/	-2%[46.1 µM]	-19%
49. COc1ccc(C=C2NC(=S)NC2=O)cc1
    -1%	18%[46.1 µM]	/	-12%	/	/	-21%[46.1 µM]	/
50. COc1ccc(C(=O)NCC(=O)NCC(c2ccco2)N(C)C)cc1OC (centres undefined)
    -2%	8%	-6%	-8%	-4.1%	-7%	14%	-2%
51. O=C(Nc1ccc(N2CCCC2)cc1)c1ccccc1F
    21%	?	-1%	-16%	-10%	?	-26%	20µM*
52. Cn1nnc2c(N3CCN(c4cccc(Cl)c4)CC3)ncnc21
    0%	/	/	/	-2.6%	/	?	-3%
53. O=C(NCC12CC3CC(CC(C3)C1)C2)c1cc2nc(-c3ccc(F)cc3)cc(C(F)(F)F)n2n1
    -15%	/	/	/	2.3%	/	25%[46.1 µM]	-13%
54. CCC1CCCCN1S(=O)(=O)c1ccc(NC(=O)C2CCN(C(=O)c3ccco3)CC2)cc1 (centres undefined)
    27%	-1%[46.1 µM]	4%	-3%	/	-2%	-28%	/
55. Cc1cccn2cc(-c3cccc(S(=O)(=O)N4CC(C)OC(C)C4)c3)nc12 (centres undefined)
    4%	/	10%	10%	/	-43%	/	/
56. COc1ccc(CNC(=O)C(=O)Nc2c3c(nn2-c2ccccc2)CSC3)cc1
    -21%	/	/	/	-1.8%	/	?	25µM*

Screens as filed in PubChem.
